Screening data deposited in PubChem by ICCB-Longwood Screening Facility, Harvard Medical School.
LANA-nucl inh – LANA-nucleosome interaction inhibition. z-score (test concentration not listed). AID 720717. FITC-LANA1-23 / chicken nucleosome fluorescence polarization; active compounds read low. 51,000 compounds, 0.3% hits;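 active means both repeat wells score below -2 in polarization z-score versus plate sample wells, excluding overly bright wells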;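 further: 100 nL library stock added to about 30 µL; numbers are from one replicate; some results filed as inactive read as strong as hits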
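Assay system: purified chicken nucleosomes with FITC-labelled LANA N-terminal peptide (1-23) / Probe or stimulus: 50 nM FITC-LANA1-23 probe / Compound dosing: pin-transferred compound, 100 nL / Times: compound with peptide–nucleosome mix 10–45 min at room temperature / Technique: fluorescence polarization, 480 nm excitation, 535 nm parallel and perpendicular emission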
Ab BasE inh – blocks the Acinetobacter baumannii siderophore enzyme BasE; inhibition, % (no concentration beside the values); AID 485350; 84,000 compounds, 0.1% hits; purified BasE, fluorescence polarization binding displacement;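 active means both replicates above 25% with normal brightness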;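 further: 0% = negative plate control signal and 100% = positive plate control signal; stock transfer was 100 nL into about 30 µL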
An asterisk follows results filed as active; · = no result given; & = joins results of further samples. An excerpt; the hit share may differ from the screen's.

The first 3 compounds as a preview:
smiles	LANA-nucl inh	Ab BasE inh
N#Cc1ccccc1S(=O)(=O)N1CCNCC1	·	-0.5
COc1ccc2nc(SCC(=O)c3cc4c5c(c3)CC(=O)N5CCC4)[nH]c2c1	·	-1.6
CCn1c2ccccc2c2cc(NC(=O)CN3CCN(S(=O)(=O)c4ccc(OC)cc4)CC3)ccc21	0.48	8.5

All compounds of this part, from the first entry:
smiles	LANA-nucl inh	Ab BasE inh
N#Cc1ccccc1S(=O)(=O)N1CCNCC1	·	-0.5
COc1ccc2nc(SCC(=O)c3cc4c5c(c3)CC(=O)N5CCC4)[nH]c2c1	·	-1.6
CCn1c2ccccc2c2cc(NC(=O)CN3CCN(S(=O)(=O)c4ccc(OC)cc4)CC3)ccc21	0.48	8.5
O=C(Cc1csc(NC(=O)c2cccs2)n1)NO	0.64	0.3
O=C(NCCCc1ccccc1)C1CCN(c2nnc(-n3cccc3)s2)CC1	0.28	0.3
Cc1cc(SC(C)C(=O)NC(N)=O)nc2ccccc12 (configuration not stated)	·	-6.5
N#CC1=C(N)C2=C(N3CCOCC3)CCCC2C1(C#N)C#N (configuration not stated)	·	4.1
COC(CNC(=O)c1ccc2c(c1)N(Cc1cccc(Cl)c1)C(=O)c1ccccc1S2=O)OC (configuration not stated)	-0.93	-3.2
O=C(O)c1cn2c3c(cccc3c1=O)CC2	1.3	-1.0
Oc1ccccc1/C=N/N1CCCCC1	·	3.0
COC(=O)N/N=C/C1=CCC2CC1C2(C)C (configuration not stated)	·	1.0
COc1ccc(C(N)CC(=O)OC(C)C)cc1 (configuration not stated)	·	0.6
Fc1ccc(-c2nnn3c2nc(N2CCCC2)c2ccccc23)cc1	0.55	-1.9
Cn1ccnc1SCC(=O)Nc1ccccc1	0.082	6.0
CC1(C)CC(=O)C/C(=N/Nc2nc3ccccc3o2)C1	·	1.3
CN(C)/C=C/c1nc(C(F)(F)F)c(C#N)s1	5.2	·
COc1c(OC)c2occc2c2oc(=O)ccc12	0.18	-1.3
COc1ccc2[nH]c(=O)c(CN(Cc3cccs3)C(c3nnnn3C(C)(C)C)C(C)C)cc2c1 (configuration not stated)	-1.3	1.4
COc1ccc(CN(C)CC(O)COc2ccc(C#N)cc2)cc1 (configuration not stated)	·	-1.4
CCOc1ccc(-c2nc(-c3cccs3)c(CC(=O)O)s2)cc1OC	·	1.7
Cn1c(=O)c(C(=O)Nc2cccc(O)c2)c(O)c2ccccc21	-0.096	1.6
CC(Oc1ccccc1F)c1nnc(SCc2ccc(C#N)cc2)o1 (configuration not stated)	·	1.9
c1ccc(Oc2cccc(CSc3nnc(-c4ccc5c(c4)OCO5)o3)c2)cc1	·	4.3
C/C(=N\OCC(=O)Nc1ccccc1OC(F)F)c1cc2ccccc2o1	·	-0.6

Whole records, quoted from the list. Order of values: LANA-nucl inh | Ab BasE inh
c1ccc(Oc2cccc(CSc3nnc(-c4ccc5c(c4)OCO5)o3)c2)cc1 in the list: · | 4.3
COc1ccc2[nH]c(=O)c(CN(Cc3cccs3)C(c3nnnn3C(C)(C)C)C(C)C)cc2c1 (configuration not stated) in the list: -1.3 | 1.4
CC1(C)CC(=O)C/C(=N/Nc2nc3ccccc3o2)C1 in the list: · | 1.3
CCOc1ccc(-c2nc(-c3cccs3)c(CC(=O)O)s2)cc1OC in the list: · | 1.7
CC(Oc1ccccc1F)c1nnc(SCc2ccc(C#N)cc2)o1 (configuration not stated) in the list: · | 1.9

Other structures
smiles	LANA-nucl inh	Ab BasE inh
Cc1oc2ncn(C)c(=O)c2c1C(=O)Nc1ccccc1	·	-0.8
CCOc1cccc2cc(C(=O)N3CCN(C/C=C/c4ccccc4)CC3)c(=O)oc12	-1.3	-0.3
CNC(=S)N/N=C(\C)c1ccc(-n2ccnc2)cc1	·	1.5
N#Cc1c(N2CCCC(C(=O)O)C2)nc(N)c2c(N)nc3c(c12)CC(=O)N3C1CCCC1 (configuration not stated)	·	0.1
C[N+](C)(C)CCOC(N)=O	0.09&0.81&0.51&0.007	-0.6&-0.9
NC(=O)COC(=O)C1CSC2(c3ccc(F)cc3)CCC(=O)N12 (configuration not stated)	·	-1.6
COc1ccccc1OCc1nc2ccccc2n1CC(C)C	1.1	-2.6
CCOc1ccc(NC(=O)C23CC4CC(CC(O)(C4)C2)C3)cc1	·	-0.7
COc1ccc(-n2ccc(-c3ccccc3)nc2=S)cc1	·	4.7
Cc1ccc(S(=O)(=O)NCCC(=O)N2CCC2)cc1C	·	-0.9
CN(C)c1ccc(-c2ccncc2)cc1	2.8	·
COc1ccccc1CN(C)CCN	-0.34	-13
Cc1ccc(C(=O)C(C)OC(=O)Cn2c(C)csc2=O)cc1 (configuration not stated)	·	0.6
C=CCSc1n[nH]c(=O)n1-c1ccc2c(c1)OCCO2	-0.73	·
CCN(CC)S(=O)(=O)c1ccc(Cl)c(OC)c1	-1.3	-0.3
CC(NC(=O)Nc1ccccc1)C(c1ccccc1)N1CCN(C)CC1 (configuration not stated)	-0.12	-1.2
CC(C)CSc1nc2ccccc2c(=O)[nH]1	·	-5.9
COc1ccc(C(CC(=O)N2CCN(c3ccccc3F)CC2)N2Cc3ccccc3C2=O)cc1OC (configuration not stated)	-1.6	0.0
C=C(C)NC(=S)Nc1nccs1	·	3.5
CCCCCC1NC(=O)NC1CCCCCC(=O)O (configuration not stated)	-0.3	-1.2
Cc1nc2nc(NC(=O)C(C)N3C(=O)c4ccccc4C3=O)[nH]n2c(=O)c1C (configuration not stated)	-0.15	2.9
O=C(c1ccco1)N1CCN(c2cnn(-c3ccccc3)c(=O)c2Cl)CC1	-0.64	3.2
C(=C\c1ccccc1)/CN1CCN(Cc2c[nH]c3ccccc23)CC1	0.056	-3.0
CN(CC(=O)N1CCCCCC1)S(=O)(=O)c1ccc2[nH]c3c(c2c1)CCCC3	-1.4	-1.0
CCNC(=O)C1CCN(c2cnccn2)CC1	0.14	0.5
CC(NC(=O)c1ccc(C23CC4CC(CC(C4)C2)C3)cc1)C(=O)O (configuration not stated)	·	1.0
Nc1nc(-c2ccc(OC(F)F)cc2)cs1	0.5	-1.7
Cc1ccc(/C=C/C(=O)N[C@@H](Cc2ccccc2)c2nc3ccccc3[nH]2)o1	·	3.7
NS(=O)(=O)c1ccc(-n2cccc2C=C2C(=O)NC(=S)NC2=O)cc1	-0.64	3.3
COc1ccc(C)cc1NC(=O)C(OC(=O)C1=NNC(=O)CC1)c1ccccc1 (configuration not stated)	·	0.7
Cc1ccnn1Cc1cc(C(=O)O)c2ccccc2n1	0.73	-0.1
Cc1cc(C)cc(C(N)=Nc2cccc(C#N)c2)c1	0.29	·
Cc1cc(/C(N)=N/OC(=O)c2snnc2C)no1	0.065	0.4
Cc1ccc(S(=O)(=O)N2Cc3ccccc3C(C)CC23CCCCC3)cc1 (configuration not stated)	·	0.8
COc1ccc(-n2cc(C(=O)NCCN(Cc3ccco3)C3CCCC3)c3ccccc3c2=O)cc1	0.83	-0.9
CC[C@H]1OC(=O)[C@H](C)[C@@H](OC2CC(C)(OC)C(O)C(C)O2)[C@H](C)[C@@H](OC2OC(C)CC(N(C)C)C2O)[C@](C)(O)C[C@@H](C)/C(=N\OCOCCOC)[C@H](C)[C@@H](O)[C@]1(C)O (some centres not stated)	0.7	0.4
CCCCN1CCN(c2nc(-c3ccccc3)c3cc(C)ccc3n2)CC1	·	1.1
CC(=O)N1CCc2cc(N=Cc3ccc(Cl)cc3)ccc21	·	-6.1
O=C1CC(=O)CC(c2ccccc2)C1	-0.14	·
Cc1ccc2c(c1)C1C3CCC(C3)C1S(=O)N2 (configuration not stated)	-0.23	-0.5
Nc1[nH]c(=S)ncc1S(=O)(=O)c1ccccc1	-1.2	0.4
COC(=O)c1oc2ccccc2c1COc1ccccc1	·	0.7
NC(=O)c1ccccc1NC(=O)COc1ccc2c(c1)OCO2	-0.47	5.5
O=C1N=C(N2CCOCC2)SC1=C1CCCC1	·	-0.7
COc1ccc(NC(=O)C2C(=O)NC3(C)CC2c2ccccc2O3)cc1 (configuration not stated)	-0.86	-2.3
CCOc1ccc(C(=O)N/N=C/c2c(C)[nH]c(=O)[nH]c2=O)cc1	0.91	-1.1
O=C(O)Cc1c(C(=O)O)[nH]c2ccc(C(=O)O)cc12	1.8	-3.3
COc1cccc(NC(=O)c2ccc(-n3cnc4cccnc43)cc2)c1	0.78	-1.5
N#CCC(c1ccccc1)c1ccccc1	·	1.4
NCc1ccc(CO)cc1	0.68	3.9
CSc1nnc(C)c(=O)n1COC(=O)C1CC(=O)N(c2ccc(C)cc2)C1 (configuration not stated)	-0.041	-4.4
C[C@@](Cc1ccc(O)c(O)c1)(NN)C(=O)O	0.096	·
CC(C)(C)c1csc(SCC(=O)Nc2nccs2)n1	-0.61	0.8
N#Cc1nc(-c2ccc(Cl)cc2)oc1NCCc1ccccc1	·	1.9
COc1ccccc1NC(=S)N(CCO)Cc1cc2cc3c(cc2[nH]c1=O)OCCO3	-0.44	4.7
Cc1noc(C)c1NC(=O)NCc1ccc2c(c1)OCO2	·	1.4
Cc1ccc(CNC(=O)CCS(=O)(=O)c2ccc3c(c2)oc(=O)n3C)cc1	·	-0.8
Cc1c(C)c(C)c(CN2CCCCC2)c(C)c1C	·	2.5
Cc1coc2cc3oc(=O)c(CC(=O)NCc4ccco4)c(C)c3cc12	2.3	-1.9
COc1ccccc1NC(=O)CC(O)(C(F)(F)F)C(F)(F)F	-1	-0.2

Quoted from the listing.
For Ab BasE inh, Cc1ccc(CNC(=O)CCS(=O)(=O)c2ccc3c(c2)oc(=O)n3C)cc1 shows -0.8
For Ab BasE inh, Cc1c(C)c(C)c(CN2CCCCC2)c(C)c1C shows 2.5
For LANA-nucl inh, Cc1coc2cc3oc(=O)c(CC(=O)NCc4ccco4)c(C)c3cc12 shows 2.3
For Ab BasE inh, CC(C)(C)c1csc(SCC(=O)Nc2nccs2)n1 shows 0.8

(cont.)
molecule | LANA-nucl inh | Ab BasE inh
C=CCc1c(C)nc(SC)[nH]c1=O | -0.17 | 0.7
COC(=O)c1ccc(S(=O)(=O)Nc2ccc3c(c2)C(=O)OC3)n1C | · | 2.6
Cc1cccc2cc3c(nc12)SC(=NCc1ccco1)N(Cc1cccs1)C3 | 0.97 | -1.8
Cc1ccccc1OCc1nc(SCC(=O)NC2CCCC2)n[nH]1 | · | 2.0
CCNc1nc(C)c(C(=O)O)s1 | -1.1 | 1.7
N/C(CN1CCCC1=O)=N\OC(=O)c1ccccc1Cl | -0.87 | 1.2
O=C(N/C=C/c1ccccc1Cl)OCc1ccc(Cl)cc1 | -1.2 | ·
CN(C)C(=O)/C=C/c1ccc2c(c1)OCO2 | 0.66 | -1.5
O=C1c2ccccc2C(=O)N1CC(c1ccco1)N1CCCCC1 (configuration not stated) | · | -0.7
C1CCN=C(NCC2(N3CCCCC3)CCCCC2)CC1 | · | 1.7
COc1cc(S(=O)(=O)N2CCN(C)CC2)ccc1Cl | -0.79 | 0.9
Cc1cc(O)c(Cc2cc(Cl)c3cccnc3c2O)c(=O)o1 | · | 78*
S=C(NCc1ccco1)N1CCOCC1 | -0.088 | 3.0
CCc1cc(-c2[nH]ncc2-c2cnn(-c3ccccc3)c2)c(O)cc1O | · | 0.7
O=C(O)c1csc(Br)c1Br | 0.27 | 4.3
C/C(=N\NS(=O)(=O)c1ccc(Br)cc1)c1cccs1 | 0.41 | 0.9
CC1(C)C[C@H]1C(=O)N/C(=C\CCCCSC[C@@H](N)C(=O)O)C(=O)O | -0.33 | ·
CC(=O)Nc1sc2c(c1C(=O)OCC(=O)c1cc(C)n(C3CC3)c1C)CCCC2 | · | 0.9
Cc1nc(NCCNC(=O)c2cccs2)c2c3c(sc2n1)CCCC3 | 0.38 | 0.1
C/C(=N\O)C(C)(C)Nc1ccc(Cl)cc1 | · | 2.2
CC(=O)Nc1nc(NC(C)=O)n(-c2ccccc2)n1 | · | -1.1
COc1ccc(C(=O)CSc2n[nH]c(=O)n2Cc2ccco2)cc1 | · | 0.3
CCNC(=S)N1CCN(S(=O)(=O)c2ccc(Cl)cc2)CC1 | -2.2* | 3.5
CC(Sc1ncnc2c1cnn2-c1ccccc1)C(=O)Nc1ccnn1C(C)C (configuration not stated) | · | 3.6
COc1ccc(Br)cc1CSc1nnc(-c2cccs2)n1C1CC1 | · | -0.8
CN(C)S(=O)(=O)c1cccc(C(=O)Nc2nc3ccc(F)cc3s2)c1 | · | 1.3
COc1ccccc1C(=O)NCCC(=O)Nc1ccc(S(N)(=O)=O)cc1 | · | 0.1
CC(OC(=O)c1cccc(-n2cnnn2)c1)C(=O)Nc1ccccc1F (configuration not stated) | · | 4.2
O=S(=O)(CCN1CCOCC1)c1ccc(Oc2ccc(S(=O)(=O)CCN3CCOCC3)cc2)cc1 | -0.42 | 3.2
CN1C(=O)/C(=C2/Sc3ccc(Cl)cc3N2C)SC1=S | -0.64 | 0.9
CSc1nnc2c3cc(C)ccc3n(C)c2n1 | 0.78 | -1.6
Cc1cc(C)n(CC(O)CN(c2ccccc2)S(=O)(=O)c2ccccc2)n1 (configuration not stated) | 1.9 | 0.5
CN1CCN(CC(=O)N2c3ccccc3C(=O)Nc3cccnc32)CC1 | 0.007&-0.074&-0.76&0.45 | -3.2&0.1
Fc1ccccc1CSc1nnc2c(n1)[nH]c1ccccc12 | -0.54 | 0.3
CC(C)(C)n1cnc2cc(N=Cc3ccccc3O)ccc21 | -0.34 | 1.3
O=C(c1n[nH]c(=O)c2ccccc12)N1CCC(Cc2ccccc2)CC1 | · | 1.2
COC(=O)/C=C1\S/C(=N\N=C\c2ccccc2)NC1=O | 0.44 | 3.2
O=S(=O)(NCc1cn2ccsc2n1)c1ccc2c(c1)OCCO2 | 0.002 | -1.2
